# High-throughput results deposited in PubChem by Vanderbilt University.
# GIRK2 act: opens human GIRK2 potassium channels; HEK293-GIRK2 thallium flux, Thallos fluorescence; P48051; 63,000 tested, 0.05% active; calls only for hits at 25 µM;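 active means among the strongest 0.2% of first-round signals and kept after retests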;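 further: first round at about 10 µM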
# Target sequence (P48051 whole entry, looked up): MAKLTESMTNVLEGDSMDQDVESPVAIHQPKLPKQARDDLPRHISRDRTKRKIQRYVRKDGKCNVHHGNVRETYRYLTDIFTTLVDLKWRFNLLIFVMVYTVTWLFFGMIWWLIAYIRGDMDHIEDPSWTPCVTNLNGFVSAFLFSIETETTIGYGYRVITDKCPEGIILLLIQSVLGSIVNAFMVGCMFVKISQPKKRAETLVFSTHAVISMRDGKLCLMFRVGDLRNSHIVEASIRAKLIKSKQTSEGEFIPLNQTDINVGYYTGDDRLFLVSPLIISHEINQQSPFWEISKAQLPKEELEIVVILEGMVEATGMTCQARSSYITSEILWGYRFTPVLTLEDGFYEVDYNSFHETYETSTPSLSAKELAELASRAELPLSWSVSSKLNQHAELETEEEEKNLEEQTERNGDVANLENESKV
# Calls only; i = inactive.
GIRK2 act,SMILES
i,CS(=O)(=O)N1CCN(C(=O)C2CCN(c3ccc(-n4cccn4)nn3)CC2)CC1
i,CCOC(=O)CCC(=O)Nc1nnc(-c2csc(C)n2)o1
i,O=S(=O)(O)CCCCI
i,NS(=O)(=O)c1ccc(C(=O)Nc2cnc(N3CCCC3)nc2)cc1
i,O=C(c1ccc(F)cc1F)N1CCN(Cc2nnnn2-c2cccc(F)c2)CC1
i,O=C(Nn1cnc2c(cnn2-c2cccc(Cl)c2)c1=O)c1ccc2c(c1)OCO2
i,COc1ccc(N/C=C(\C#N)c2nc(-c3ccc(Cl)cc3)cs2)cc1OC
i,CCCCC/C=C\C=C1\C(=O)CC[C@@H]1C/C=C\CCCC(=O)O

# Going on with the list:
GIRK2 act,SMILES
i,NC(=O)c1ccccc1NC(=O)CSc1nnc(CCc2nc3ccccc3s2)o1
i,CC(=O)Nc1ccc(C(=O)N2CCC(Oc3nc4ccccc4s3)CC2)cc1
i,CCCCNC(=O)C1CCN(c2cc(Oc3ccccc3)ncn2)CC1
i,Cc1nc(N2CCOCC2)cc(N2CCN(C(=O)c3cc(C)on3)CC2)n1
i,COc1cccc(C(=O)Nc2ccc(SC)nn2)c1OC
i,CS(=O)(=O)N1CCN(c2cc(-n3cccc3)ncn2)CC1
i,COCCNC(=O)CCCn1c(=O)c2ccccc2n(CC(=O)NCCC2=CCCCC2)c1=O
i,Cc1nc(N2CCN(C(=O)c3ccc(C)c(C)c3)CC2)cc(-n2cccc2)n1

# Carrying on:
GIRK2 act,SMILES
i,O=S(=O)(c1ccc(F)cc1F)N1CCN(CC(O)C2CC2)CC1 (centres undefined)
i,CSc1ccccc1C(=O)Nc1ccc(-n2nnc(C(=O)NCC(F)(F)F)n2)cc1
i,Cc1ccc(N2CCCC(C(=O)Nc3ccccc3Br)C2)nn1 (centres undefined)
i,Cc1ccc(-c2nc3c(c(=O)n2CC(=O)N(C)c2ccccc2)CCN(Cc2ccccc2)C3)cc1
i,O=C(c1c(F)cccc1Cl)N1CC(c2nc(-c3ccccn3)no2)C1
i,O=C(C1CC(=O)N(c2ccc(F)cc2)C1)N1CCC(Oc2cnccn2)CC1 (centres undefined)
i,COc1ccccc1N1CCN(C(=O)c2ccc(S(=O)(=O)N3CCOCC3)o2)CC1
i,O=c1n(CCCN2CCN(c3cccc(Cl)c3)CC2)nc2ccccn12

# (further entries)
GIRK2 act,SMILES
i,COC(=O)N1CCc2ccc(Br)cc2C1C(=O)Nc1c(C)cc(C)cc1C (centres undefined)
i,COc1ccc(Cl)cc1C(=O)NCCS(=O)(=O)N1CCc2ccccc2C1
i,COc1ccc(OC)c(-c2cc(C(=O)NCCOc3ccc(F)cc3)n(C)n2)c1
i,CCOc1ccc(Nc2nn3c(=O)c4cc(C)ccc4nc3s2)cc1
i,O=C(Cc1c[nH]c2ccccc12)N1CC(c2nc(-c3cccc(C(F)(F)F)c3)no2)C1
i,COc1ccc(-c2csc(-n3nc(C)cc3NC(=O)C34CC5CC(CC(C5)C3)C4)n2)cc1OC
i,COCCCn1c(C(=O)N2CCC(C(=O)OC)CC2)cc2c(=O)n3cccc(C)c3nc21
i,CC(C)c1nnc(C2CCN(C(=O)NCCc3ccccc3)CC2)o1

# (further entries)
GIRK2 act,SMILES
i,O=c1c2cc(-c3cccs3)nn2ccn1Cc1ccc(Br)cc1F
i,COc1cccc2sc(NC(=O)Nc3ccccc3C(F)(F)F)nc12
i,COc1ccc(-c2nc3scc(CCNS(=O)(=O)c4cc(F)ccc4F)n3n2)cc1OC
i,COc1ccc(C(=O)NC2CCN(C(=O)c3cc(-c4cccs4)[nH]n3)CC2)c(OC)c1
i,CSc1ccc(NC(=O)c2sc(C)nc2C)nn1
i,Cc1cc(NC(=O)c2ccc(S(=O)(=O)N(C)C)cc2)sn1
i,COc1ccc(CCNC(=O)Nc2ccc3c(c2)OCC(C)(C)C(=O)N3CC(C)C)cc1
i,O=S(=O)(NCCN1CCN(c2ccccc2)CC1)c1cc(Cl)ccc1Cl

# Continuation.
GIRK2 act,SMILES
i,CN(CC(=O)N1CCCSCC1CN1CCCC1)S(C)(=O)=O (centres undefined)
i,COc1ccccc1-c1cc(C(=O)N2CCN(c3ccc(F)cc3)CC2)[nH]n1
i,CCCCn1c(=O)c2ccccc2n(Cc2nc(-c3ccccc3Br)no2)c1=O
i,O=S(=O)(c1ccc(F)c(Cl)c1)N1CCC(N2CCCC2CO)CC1 (centres undefined)
i,Cc1cc(NCCCN2CCOCC2)n2nc(C)c(-c3ccccc3)c2n1
i,COc1cccc(-n2nnc(-c3nnc(Cc4ccccc4)o3)c2C)c1
i,O=C(Cn1c(=O)[nH]c2c(-c3ccccc3F)c[nH]c2c1=O)NCc1ccc(Cl)cc1
i,CO[C@H]1/C=C/O[C@@]2(C)Oc3c(C)c(O)c4c(O)c(c(/C=N\N5CCN(C6CCCC6)CC5)c(O)c4c3C2=O)NC(=O)/C(C)=C\C=C\[C@H](C)[C@H](O)[C@@H](C)[C@@H](O)[C@@H](C)[C@H](OC(C)=O)[C@@H]1C

# New compounds follow.
GIRK2 act,SMILES
i,CCC(=O)Nc1ccc2c(c1)c(=O)n(-c1ccccc1)n2CC(=O)Nc1ccccc1
i,Cc1ccc2[nH]c(C(=O)NCC3CC3)c(NC(=O)c3ccc(F)cc3)c2c1
i,CCOC(=O)NCCc1csc(-n2nc(C)cc2C)n1
i,CC(C)N(CC#CCNC(=O)Nc1c(F)cccc1F)C(C)C
i,COc1cccc(C(=O)N(CCc2cccs2)Cc2ccco2)c1OC
i,O=C(NCCCn1ccc2ccccc21)c1ccc[nH]c1=O
i,N#CCc1nc2ccc(C(=O)O)cc2[nH]1
i,COc1ccc(CNC(=O)C(=O)NCc2ccccc2Cl)cc1

# Next results follow.
GIRK2 act,SMILES
i,Cc1nc2sc(C(c3cccc(Br)c3)N3CCCC(C)C3)c(O)n2n1 (centres undefined)
i,CCS(=O)(=O)N1CCCc2ccc(NS(=O)(=O)c3ccccc3)cc21
i,O=C(Nc1ccc(F)cc1)N1CCC(c2nnc(-c3ccco3)s2)CC1
i,COCCn1c(SCc2nc(-c3cc(OC)c(OC)c(OC)c3)oc2C)nc2ccccc2c1=O
i,c1cnc(-c2noc(C3CN(Cc4ccc5c(c4)CCO5)C3)n2)nc1
i,CC(=O)Nc1ccc(S(=O)(=O)NCc2sc(-c3ccco3)nc2C)cc1
i,Cc1noc(-c2ccc(NC(=O)c3ccc([N+](=O)[O-])o3)cc2)n1
i,COC(=O)N1CCc2ccccc2C1C(=O)NCCCn1ccnc1 (centres undefined)

# Reformatted with each value named: part of the list above.
> c1cnc(-c2noc(C3CN(Cc4ccc5c(c4)CCO5)C3)n2)nc1
  GIRK2 act = i

> CC(=O)Nc1ccc(S(=O)(=O)NCc2sc(-c3ccco3)nc2C)cc1
  GIRK2 act = i

# Other entries:
GIRK2 act,SMILES
i,CCCS(=O)(=O)N1CCN=C1SCc1ccc(Cl)cc1Cl
i,O=S(=O)(Cc1ccc(F)cc1)N1CCC2(CC1)OCCCO2
i,Cn1c(=O)c2c(nc(N3CCC(C(N)=O)CC3)n2Cc2ccccc2Cl)n(C)c1=O
i,O=C(NCC(O)c1ccoc1)C(=O)Nc1ccc2c(c1)OCO2 (centres undefined)
i,CCCNC(=O)C(=O)NCCc1ccc2c(c1)CCCN2CCC
i,O=c1cc(CCl)c2ccc(Br)cc2o1
i,Cc1ccccc1CC(=O)N1CCC2(CC1)NC(=O)c1cccc(Cl)c1N2
i,O=C(NCCc1c[nH]c2ccccc12)C1CCCN(c2ccc(-c3cccs3)nn2)C1 (centres undefined)

# (more compounds)
GIRK2 act,SMILES
i,Cc1ccccc1-c1csc2c(=O)[nH]c(N3CCCC(C(=O)NC4CCCCCC4)C3)nc12 (centres undefined)
i,O=C1CN(c2ncnc3[nH]ncc23)CC(=O)N1CCc1ccccc1
i,O=C(/C=C/c1ccco1)N(Cc1ccsc1)C1CC1
i,COc1ccc(C(=O)/C=C/c2ccc(C)cc2)c(O)c1
i,Cc1ccc(C)c(NC(=O)CN2C(=O)Nc3ccccc3S2(=O)=O)c1
i,CC(Cc1ccco1)NC(=O)Cn1c(=O)oc2ccccc21 (centres undefined)
i,O=[N+]([O-])c1ccc(S(=O)(=O)NCCOc2ccccc2)cc1
i,O=C(CSc1nnc(Cn2ccc(=O)[nH]c2=O)o1)Nc1nncs1

# (continued)
GIRK2 act,SMILES
i,O=C(Nc1cccnc1)c1ccc(Cl)c(S(=O)(=O)N2CCCCC2)c1
i,O=C(/C=C/c1ccc(O)cc1)NCCCCN(CCCNC(=O)/C=C/c1ccc(O)cc1)C(=O)/C=C/c1ccc(O)cc1
i,CCOCCn1c(=O)c2c(nc3n2CCCN3c2cccc(OC)c2)n(C)c1=O
i,CC(=O)Nc1ccc(C(=O)NCCNS(=O)(=O)c2cccc(Cl)c2Cl)cc1
i,Cc1nc2n(c(=O)c1C)C(CC(=O)NCCn1nc(-c3ccccn3)n(C)c1=O)CS2 (centres undefined)
i,COc1ccc(/C=C2\SC(=S)N(c3ccccc3OC)C2=O)cc1
i,O=C(Nc1nc(-c2ccccc2)ns1)c1cccc([N+](=O)[O-])c1
i,CCC(C(=O)NCc1nn(C2CCCC2)c(=O)c2ccccc12)c1ccccc1 (centres undefined)

# Other results follow:
GIRK2 act,SMILES
i,COc1ccc(SCC(=O)Nc2nnc(-c3ccsc3)o2)cc1
i,COC(=O)N1CCN(Cc2nnnn2-c2ccc(Cl)cc2)CC1
i,COc1ccc2nc(-c3ccc(Cl)c(NC(=O)c4cc(Cl)ccc4OC)c3)cn2n1
i,C=CCN1CC(c2nc3ccccc3n2CCCCOc2ccc(Cl)c(C)c2)CC1=O (centres undefined)
i,CC(C(=O)NCc1ccccc1OC(F)(F)F)n1nc(-c2ccc(F)cc2)ccc1=O (centres undefined)
i,O=C(Nc1ccccc1C(F)(F)F)c1csc(-c2cnccn2)n1
i,O=C(Cn1c(=O)oc2ccccc21)N(CCc1cccs1)Cc1ccoc1
i,Cc1ccc(C)c(NC(=O)Cn2c(=O)n(-c3ccc(CC(=O)NC(C)C)cc3)c(=O)c3ccccc32)c1

# Shown with bars between the fields: four of the compounds above.
SMILES | GIRK2 act
O=C(Nc1ccc(F)cc1)N1CCC(c2nnc(-c3ccco3)s2)CC1 | i
COCCn1c(SCc2nc(-c3cc(OC)c(OC)c(OC)c3)oc2C)nc2ccccc2c1=O | i
c1cnc(-c2noc(C3CN(Cc4ccc5c(c4)CCO5)C3)n2)nc1 | i
CC(=O)Nc1ccc(S(=O)(=O)NCc2sc(-c3ccco3)nc2C)cc1 | i

# The results go on.
GIRK2 act,SMILES
i,CCc1ccc(S(=O)(=O)c2cnc3ccc(C)cc3c2N2CCC(C(N)=O)CC2)cc1
i,COc1ccc(CCNS(=O)(=O)c2cn(C)nc2C)cc1OC
i,COc1ccc(S(=O)(=O)c2cn(C)c3cc(N4CCC(C)CC4)c(F)cc3c2=O)cc1
i,CC(C)(C)c1ccc(C(=O)NCC(O)C2CCCCC2)cc1 (centres undefined)
i,CC(C)CCn1c(CCNC(=O)CCCO)nc2ccccc21
i,CC(C)c1cc(=O)[nH]c(-n2nc(-c3cccs3)cc2NC(=O)c2ccc(Br)o2)n1
i,C=C(C)COc1ccc2c(c1)O/C(=C\c1ccc(OC)c(OC)c1OC)C2=O
i,CCOC(=O)N1CCN(c2nc(Nc3ccc(C)cc3)c3n[nH]nc3n2)CC1

# Going on with the list:
GIRK2 act,SMILES
i,O=C(NCc1nc2ccccc2[nH]1)C(c1ccccc1)n1cccc1 (centres undefined)
i,O=C(NCCc1ccccc1)c1cc([N+](=O)[O-])ccc1Cl
i,CCc1ccc(NC(=O)NCCNc2cc(Nc3ccccn3)ncn2)cc1
i,Cc1cccc(-c2noc(Cn3ncn4nc(-c5ccc(C)cc5C)cc4c3=O)n2)c1
i,CC(C)NC(=O)N1CCC(Oc2ccc(Cl)cn2)CC1
i,CCCS(=O)(=O)N1CCCc2ccc(NC(=O)Nc3ccc4c(c3)OCO4)cc21
i,CC1=C(C(=O)Nc2cccc(Cl)c2)C(c2ccc(Cl)c([N+](=O)[O-])c2)NC(=O)N1 (centres undefined)
i,CCc1ccccc1NS(=O)(=O)c1cc(OC)ccc1OC

# The list goes on.
GIRK2 act,SMILES
i,CC(=O)Nc1ccc(C(=O)NCCNC(=O)C2c3ccccc3Oc3ccccc32)cc1
i,CC1CCN(c2cc(NC(=O)C3CC3)ncn2)CC1
i,CC(C)c1nnc(SCC(=O)Nc2ccc(C(N)=O)cc2)c2c1cnn2-c1ccc(F)cc1
i,O=C(CSc1nnc(CCc2nc3ccccc3s2)o1)NCCc1c[nH]c2ccccc12
i,Cc1cccc(-c2ccc(S(=O)(=O)O)cc2)c1
i,CCCCNC(=O)C(=O)Nc1cccc(Cl)c1C
i,CCCCCC(=O)/C=C/[C@H]1[C@H](O)CC(=O)[C@@H]1CCCCCCC(=O)O
i,Cn1nnn(-c2ccc(NS(=O)(=O)Cc3ccccc3)cc2)c1=O

# A second format for some results above:
> CC(=O)Nc1ccc(C(=O)NCCNC(=O)C2c3ccccc3Oc3ccccc32)cc1
  GIRK2 act = i

> CC1CCN(c2cc(NC(=O)C3CC3)ncn2)CC1
  GIRK2 act = i

> Cn1nnn(-c2ccc(NS(=O)(=O)Cc3ccccc3)cc2)c1=O
  GIRK2 act = i

> CCCCNC(=O)C(=O)Nc1cccc(Cl)c1C
  GIRK2 act = i

# (list continues)
GIRK2 act,SMILES
i,CC(=O)Nc1ccc2c(C)c(-c3ccccc3)c(=O)oc2c1
i,Cc1nnsc1C(=O)N1CCOCC1CN(C)CCO (centres undefined)
i,CCc1ccc(S(=O)(=O)N2CCN(c3ccc(-c4ccc(C)cc4C)nn3)CC2)s1
i,COc1cccc2c(SCC(=O)Nc3ccc4c(c3)OCO4)nccc12
i,CCc1ccccc1NC(=O)c1csc2nc(-c3ccc(OC)cc3)cn12
i,COc1cccc(/C=C2\Oc3cc(OCC(=O)OC(C)C)ccc3C2=O)c1OC
i,CSCC(C)(O)CNC(=O)C(=O)Nc1cc2c3c(c1)CCC(=O)N3CCC2 (centres undefined)
i,O=C(Cn1nc2c(SC3CCCCC3)nccn2c1=O)Nc1cccc(Br)c1
i,COC(=O)N1CCc2c(sc(N)c2-c2nc3ccccc3s2)C1
i,O=C(c1cc(Br)ccc1Cl)N(Cc1ccsc1)CC(F)(F)F
i,Cn1nc(C(=O)N2CCN(CC(O)c3cccs3)CC2)ccc1=O (centres undefined)

# Some of the compounds tested; the hit share may differ from the screen's.
